# AF4-AF9 inh = blocks AF4 peptide binding to human AF9; P42568; AlphaScreen, biotin-AF4 peptide binding to FLAG-AF9; inhibition, % at 10 µM; 0.47% of 350,000 active; AID 651704;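 active means every replicate reaching a set inhibition limit, whatever the replicate mean, cut at about 25% in these data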;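 further: 0% = plate neutral control median and 100% = total signal loss; the record names both 10 and 1 µM as test concentration; the first replicate is given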
# Target sequence (P42568 whole entry, looked up): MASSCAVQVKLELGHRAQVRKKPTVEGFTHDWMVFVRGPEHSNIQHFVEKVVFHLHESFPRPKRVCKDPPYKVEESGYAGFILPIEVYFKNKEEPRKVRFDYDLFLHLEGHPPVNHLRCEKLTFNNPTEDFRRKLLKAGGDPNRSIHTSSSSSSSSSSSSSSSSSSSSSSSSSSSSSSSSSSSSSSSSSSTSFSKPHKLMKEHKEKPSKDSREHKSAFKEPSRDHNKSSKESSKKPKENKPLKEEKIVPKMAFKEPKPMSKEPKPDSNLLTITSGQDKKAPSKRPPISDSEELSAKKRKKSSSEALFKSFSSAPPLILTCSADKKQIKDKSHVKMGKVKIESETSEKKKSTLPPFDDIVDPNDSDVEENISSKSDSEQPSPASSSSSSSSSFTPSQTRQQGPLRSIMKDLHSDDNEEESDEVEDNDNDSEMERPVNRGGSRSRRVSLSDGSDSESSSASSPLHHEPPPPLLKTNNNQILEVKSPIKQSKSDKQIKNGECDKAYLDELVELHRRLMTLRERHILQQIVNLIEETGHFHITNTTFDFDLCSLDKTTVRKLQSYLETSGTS
# Ecoli rRNA inh = inhibits bacterial ribosomal RNA function over humanized ribosomes. E. coli WT GFP vs humanized-ribosome RFP mutants, fluorescence, 24 h; stronger effect = lower value; DMSO median 0, no signal -100. GFP signal change (wild-type ribosome), % (concentration not given with the values). 1.6% of 350,000 active;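 active means significant combined selectivity score with lowered wild-type GFP, culture density cut under 30%, mutant RFP and density less affected; inactive means any of these conditions unmet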; further: one replicate is shown; some compounds called inactive have numbers as strong as hits
# FGF22 binding = FGF22 (human) thermal shift binding | Q9HCT0 | recombinant FGF22 thermal shift, SYPRO orange fluorescence; percent of sucrose octasulfate shift, DMSO zero | calls only at 9.99 µM | 1.5% of 340,000 active;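 active means melting point raised past a set limit in the mean and every replicate; three in four hits are not shown here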
# Target sequence (Q9HCT0 whole entry, looked up): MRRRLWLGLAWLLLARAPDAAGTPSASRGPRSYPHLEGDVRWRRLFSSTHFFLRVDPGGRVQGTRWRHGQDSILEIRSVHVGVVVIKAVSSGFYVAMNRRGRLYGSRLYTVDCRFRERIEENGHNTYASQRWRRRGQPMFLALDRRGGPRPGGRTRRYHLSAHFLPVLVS
# Ecoli rRNA inh OD600 = second read-out of Ecoli rRNA inh, no call of its own (marks repeat the call); OD600 change, %; measured here: OD600 growth;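 optical density of the mix in the first replicate; 0 = DMSO median and -100 = no signal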
# Ecoli rRNA inh RFP = also measured in Ecoli rRNA inh; calls as there; RFP signal change, %; measured here: RFP humanized mutant strains;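 first replicate; 0 = DMSO median and -100 = no signal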
# * marks the source's active call; other numbers are inactive results; i = inactive; x = not tested or not shown; + = active, no number. A portion of the library (hit frequency here may not be typical).
SMILES,AF4-AF9 inh,Ecoli rRNA inh,Ecoli rRNA inh OD600,Ecoli rRNA inh RFP,FGF22 binding
CCC(=O)Nc1ccc2c(c1)OC[C@H](C)N(Cc1ccncc1)C[C@@H](C)[C@@H](OC)CN(C)C2=O,-4.9,-1,0,-0.4,i
C[C@@H]1CN([C@@H](C)CO)C(=O)c2cc(C3=CCCCC3)cnc2O[C@@H]1CN(C)C(=O)CN1CCOCC1,-1.7,4,0,-1.8,i
COc1ccc(S(=O)(=O)N(C)C[C@H]2Oc3ccc(NC(=O)Nc4ccccc4)cc3CC(=O)N([C@@H](C)CO)C[C@H]2C)cc1,3.3,1,-10,4.0,i
CCC(=O)N(C)C[C@H]1Oc2ncc(C#CCc3ccccc3)cc2C(=O)N([C@H](C)CO)C[C@H]1C,-3.4,7,15,-1.4,i
COc1cccc(C(=O)Nc2ccc3c(c2)C(=O)N(C)[C@H]2CC[C@@H](CC(=O)NCC4CC4)O[C@@H]2CO3)c1,-1.0,4,11,-0.9,i
Cc1cn([C@H]2C[C@H](O)[C@@H](CCC(=O)NCCCc3ccccc3)O2)c(=O)[nH]c1=O,-2.1,7,20,3.8,i
O=C(Nc1ccccc1)[C@H]1[C@H](CO)[C@H]2Cn3c(cccc3=O)[C@H]2N1C(=O)C1CCCC1,0.6,0,-5,-3.1,i
COc1ccc(-c2ccc3n(c2=O)C[C@@H]2[C@@H](CO)[C@H](C(=O)N4CCCCC4)[C@H]3N2C)cc1,-2.0,3,7,-1.7,i
COc1ccc2c3c([nH]c2c1)[C@@H](CO)N(C(=O)Nc1ccc(F)cc1)CC31CN(Cc2cc(F)ccc2F)C1,5.9,-13,-47,26,i
COc1ccc(CC(=O)NCc2ccccc2F)cc1S(=O)(=O)N1CCOCC1,-1.5,5,13,-2.9,i
COCC#Cc1ccc2c(c1)O[C@@H](CN(C)Cc1cccnc1)[C@@H](C)CN([C@H](C)CO)S2(=O)=O,0.7,0,8,0.5,i
CCCNC(=O)N(C)C[C@H]1Oc2cc(-c3ccccc3)ccc2S(=O)(=O)N([C@@H](C)CO)C[C@@H]1C,1.5,-3,-6,-1.2,i
C[C@@H]1CCCCO[C@@H](CN(C)S(=O)(=O)c2cccs2)[C@@H](C)CN([C@H](C)CO)C(=O)c2cc(NS(=O)(=O)c3cn(C)cn3)ccc2O1,-2.4,3,8,-2.7,i
Cc1c(Br)cccc1NC(=O)C1(C)CCN1C(C)C (centres undefined),-4.6,6,11,0.3,i
O=C(C[C@H]1C=C[C@@H](NC(=O)Cc2ccccn2)[C@H](CO)O1)NCCCN1CCOCC1,-2.1,-3,0,-0.7,i
O=C(Nc1ccc2c(c1)OCO2)c1cc(C2CCCCN2C(=O)c2ccc3c(c2)CCO3)on1 (centres undefined),0.0,-3,-8,2.4,i
CC(C)NC(=O)Nc1ccc2c(c1)C(=O)N([C@H](C)CO)C[C@@H](C)[C@@H](CN(C)S(=O)(=O)c1ccc(F)cc1)OCCCC[C@H](C)O2,-1.5,-1,-3,2.4,i
O[C@@H]1CN(CC2CCCCC2)[C@@H](c2ccc(Cl)cc2)C[C@H]1n1cc(-c2ccc(F)cc2)nn1,-2.7,4,10,-8.2,i
CCCN(C)C[C@H]1Oc2ncc(-c3cccc(C#N)c3)cc2C(=O)N([C@@H](C)CO)C[C@@H]1C,0.1,10,13,-2.8,i
O=C(Nc1ccc(F)cc1)N[C@@H]1CC[C@H](CCn2cc(-c3ccccc3F)nn2)O[C@H]1CO,-0.7,-12,-12,1.6,+
CCOc1ccc(NC(=O)CSc2nc3ccsc3c(=O)n2CCCCC(=O)O)cc1,0.9,-1,-1,0.5,i
COc1ccc(-c2ccc3c(c2)O[C@@H](CN(C)C(=O)c2ccccc2F)[C@H](C)CN([C@H](C)CO)S3(=O)=O)cc1,2.5,-2,-21,1.0,i
COC[C@@H](O)[C@H]1OCc2cc(OC)ccc2[C@@H]1/C=C/c1ccccc1,-0.5,-11,-14,1.4,x
O=C(CC1CC1)N1CC2(C1)[C@H](c1ccccc1)[C@@H](CO)N2Cc1ccccc1,-1.9,3,-5,-0.3,i
O=C(c1cccnc1)N1CC[C@@H]2[C@@H](CO)Nc3ccc(C4=CCCCC4)cc3[C@@H]21,18,-1,10,-2.7,i
CCCNC(=O)N(C)C[C@H]1Oc2ncc(Br)cc2C(=O)N([C@H](C)CO)C[C@@H]1C,-1.8,3,14,-3.3,i
COc1ccc2c3c(n(C)c2c1)[C@H](CO)N(C(=O)C1CCCC1)CC31CN(C)C1,5.3,2,4,-3.0,i
C[C@H]1CN([C@@H](C)CO)C(=O)c2cc(NS(=O)(=O)c3ccc(Cl)cc3)ccc2O[C@@H]1CN(C)Cc1ccncc1,-1.3,-1,-1,0.9,i
COc1ccccc1-c1cnc2c(c1)C(=O)N([C@@H](C)CO)C[C@H](C)[C@@H](CN(C)C(=O)CN(C)C)O2,0.6,5,11,-1.7,i
O=C(NCC[C@H]1CC[C@@H](NC(=O)c2ccncc2)[C@@H](CO)O1)Nc1ccc(Cl)cc1,8.9,-17,-26,-0.8,i

# Rewritten with values under each structure: part of the list above
# Order of values – AF4-AF9 inh | Ecoli rRNA inh | Ecoli rRNA inh OD600 | Ecoli rRNA inh RFP | FGF22 binding
COc1ccc(-c2ccc3c(c2)O[C@@H](CN(C)C(=O)c2ccccc2F)[C@H](C)CN([C@H](C)CO)S3(=O)=O)cc1
 : 2.5 | -2 | -21 | 1.0 | i
COC[C@@H](O)[C@H]1OCc2cc(OC)ccc2[C@@H]1/C=C/c1ccccc1
 : -0.5 | -11 | -14 | 1.4 | x
O=C(CC1CC1)N1CC2(C1)[C@H](c1ccccc1)[C@@H](CO)N2Cc1ccccc1
 : -1.9 | 3 | -5 | -0.3 | i
O=C(c1cccnc1)N1CC[C@@H]2[C@@H](CO)Nc3ccc(C4=CCCCC4)cc3[C@@H]21
 : 18 | -1 | 10 | -2.7 | i
CCCNC(=O)N(C)C[C@H]1Oc2ncc(Br)cc2C(=O)N([C@H](C)CO)C[C@@H]1C
 : -1.8 | 3 | 14 | -3.3 | i
COc1ccc2c3c(n(C)c2c1)[C@H](CO)N(C(=O)C1CCCC1)CC31CN(C)C1
 : 5.3 | 2 | 4 | -3.0 | i
C[C@H]1CN([C@@H](C)CO)C(=O)c2cc(NS(=O)(=O)c3ccc(Cl)cc3)ccc2O[C@@H]1CN(C)Cc1ccncc1
 : -1.3 | -1 | -1 | 0.9 | i

# (listing goes on)
SMILES,AF4-AF9 inh,Ecoli rRNA inh,Ecoli rRNA inh OD600,Ecoli rRNA inh RFP,FGF22 binding
CN(C)C(=O)C[C@@H]1C[C@@H]2c3cc(NS(C)(=O)=O)ccc3O[C@@H]2[C@@H](CO)O1,0.5,3,-5,-2.3,i
CCc1nc2ccc(C(=O)Nc3cc(-c4ccccc4)ccc3OC)cn2c1N(C=O)CCC(C)C,-2.2,19,20,1.8,i
C[C@H]1CN([C@@H](C)CO)C(=O)c2cccc(NC(=O)Nc3ccccc3)c2O[C@@H]1CN(C)C(=O)Nc1ccc(C(F)(F)F)cc1,1.5,-5,-9,-3.1,i
CCCS(=O)(=O)NC(=O)C1(C)CCN(C(=O)c2ccccc2OC(F)(F)F)C1 (centres undefined),0.7,5,3,0.3,i
COC(=O)c1cc2c(c3c4cc(OC)ccc4n(C(=O)c4ccccc4)c13)C(=O)N(Cc1ccco1)C2,-1.0,-14*,-17*,1.0*,i
COc1ccccc1-c1cnc2c(c1)C(=O)N([C@H](C)CO)C[C@@H](C)[C@H](CN(C)Cc1cccc(F)c1)O2,11,-4,-11,1.5,i
CC(=O)NC[C@H]1[C@H](c2ccc(-c3cccnc3)cc2)[C@H](CO)N1C(=O)C1CC1,1.2,-4,-9,-2.0,i
COC(=O)C1(C(=O)OC)c2ccccc2CN(S(=O)(=O)c2ccc(C)cc2)C1CC(C)=O (centres undefined),-1.5,-5,5,2.1,i
COCC(=O)N(C)C[C@H]1Oc2ncc(C#Cc3ccc(F)cc3)cc2C(=O)N([C@H](C)CO)C[C@@H]1C,-1.9,-5,-7,-1.7,i
C[C@@H]1CCCCO[C@@H](CN(C)C)[C@H](C)CN([C@@H](C)CO)C(=O)c2cc(NC(=O)Nc3cccc4ccccc34)ccc2O1,-2.7,3,2,-0.2,i
CSc1ccc(Cn2c(C)c(C(=O)NCc3ccc(C(C)C)cc3)sc2=O)cc1,8.6,7,4,-4.4,i
O=C(Nc1ccc2c(c1)OCCO2)C1c2ccccc2OCC(=O)N1Cc1ccc2c(c1)OCO2 (centres undefined),2.6,-12,-14,3.5,i
CCCNC(=O)[C@@H]1[C@@H](CO)[C@@H]2Cn3c(cccc3=O)[C@H]1N2CCC(F)(F)F,1.7,0,4,-0.1,i
CC(C)NC(=O)Nc1ccc2c(c1)C(=O)N([C@@H](C)CO)C[C@H](C)[C@@H](CN(C)S(=O)(=O)c1cn(C)cn1)OCCCC[C@H](C)O2,-0.1,6,13,-1.8,i
N#C[C@@H]1[C@@H](c2ccccc2-c2cccc(F)c2)[C@@H](CO)N1C(=O)C1CC1,2.7,-2,-11,0.8,i
C[C@H](CO)N1C[C@H](C)[C@@H](CN(C)CC2CCCCC2)Oc2ccc(NC(=O)CCCN(C)C)cc2CC1=O,10,4,4,0.2,i
CO[C@H]1CN(C)C(=O)c2ccc(NC(=O)c3ccc(F)cc3)cc2OC[C@@H](C)N(C(=O)c2ccc(F)cc2)C[C@H]1C,-0.6,-4,-1,5.1,i
CC(C)NC(=O)N(C)C[C@@H]1OCCCC[C@H](C)Oc2ccc(NC(=O)CCC(F)(F)F)cc2C(=O)N([C@@H](C)CO)C[C@@H]1C,-1.7,0,7,-1.3,i
CCC(=O)N[C@@H]1CC[C@H](CC(=O)NCc2ccc(OC)cc2)O[C@@H]1CO,-2.2,2,3,-0.9,i
COc1ccccc1CNC(=O)C[C@H]1CC[C@H](NC(C)=O)[C@@H](CO)O1,-0.2,-3,-5,-3.5,i
CCCN1C[C@@H](C)[C@@H](OC)CN(C)C(=O)c2cc(NC(=O)c3cccc(F)c3)ccc2OC[C@@H]1C,-0.4,-1,-2,-1.7,i
CN1c2ccc(-c3ccccc3)cc2[C@H]2[C@H](CCN2C(=O)c2ccccc2)[C@@H]1CO,8.5,-6,-12,6.5,i
COC(=O)C[C@H]1C[C@@H]2c3cc(NC(=O)Nc4ccc(C(F)(F)F)cc4)ccc3O[C@@H]2[C@H](CO)O1,-4.5,-25*,12*,7.0*,i
C[C@H](CO)N1C[C@H](C)[C@@H](CN(C)C(=O)C2CC2)Oc2cc(-c3ccccc3F)ccc2S1(=O)=O,-17,-3,-16,0.5,i
CCOC(=O)[C@]12CCC=C1N(Cc1ccc3c(c1)OCO3)C(=O)[C@H](CC(=O)N1CCCC1)C2,-5.5,1,4,3.7,i
O=C(Cc1ccc([N+](=O)[O-])cc1)NCCc1ccc2c(c1)OCO2,-0.6,-3,-1,2.1,i
Cc1ccc(S(=O)(=O)NCCCNC(=O)OCc2ccccc2)cc1,-0.1,-17,-26,0.6,i
C[C@@H]1CN([C@@H](C)CO)C(=O)Cc2cc(NC(=O)Nc3ccc(C(F)(F)F)cc3)ccc2O[C@H]1CN(C)Cc1ccc(Cl)c(Cl)c1,2.9,0,12,0.4,i
CCC(=O)Nc1ccc2c(c1)C(=O)N(C)C[C@H](OC)[C@H](C)CN(Cc1ccccn1)[C@@H](C)CO2,-0.9,0,7,-2.8,i
COc1ccc(NC(=O)Nc2ccc3c(c2)CC(=O)N([C@@H](C)CO)C[C@H](C)[C@H](CN(C)C(=O)Nc2ccccc2)O3)cc1,1.5,2,6,-1.4,i
O=C(Cc1ccncc1)NCC[C@H]1CC[C@@H](NC(=O)Nc2cccc(F)c2)[C@@H](CO)O1,2.4,2,-1,0.6,i
C[C@@H]1CCCCO[C@H](CN(C)C(=O)Cc2ccccc2)[C@H](C)CN([C@@H](C)CO)C(=O)c2cc(NS(=O)(=O)c3ccccc3)ccc2O1,-2.0,-9,-6,1.0,i
C[C@H](CO)N1C[C@H](C)[C@@H](CN(C)Cc2ccc(Cl)c(Cl)c2)OCCCC[C@H](C)Oc2ccc(NC(=O)Cc3ccccc3)cc2C1=O,-6.0,-1,-2,3.0,i
CCCCNC(=O)C1(C)CCCCN1C(=O)c1cc(OC)ccc1Br (centres undefined),-0.3,5,0,-2.6,i
CCOc1ccc(CCN2C(=O)C(=O)N([C@@H](Cc3ccccc3)CN3CCC[C@H]3CN3C(=O)C(=O)NC[C@@H]3Cc3ccc(O)cc3)C[C@@H]2Cc2ccc(O)cc2)cc1,0.0,-4,-8,1.2,i
Cc1ccc(S(=O)(=O)N(C)C[C@@H]2OCCCC[C@@H](C)Oc3ccc(NC(=O)Nc4ccc(F)cc4)cc3C(=O)N([C@@H](C)CO)C[C@@H]2C)cc1,0.2,2,7,-0.7,i
C[C@@H]1CCCCO[C@@H](CN(C)C(=O)Nc2ccc(F)cc2)[C@H](C)CN([C@H](C)CO)C(=O)c2cc(NC(=O)Nc3ccc(F)cc3)ccc2O1,1.8,1,-3,-0.6,i
